rRNA inh HTS: inhibits bacterial ribosomal RNA function over humanized ribosomes | GFP signal change (wild-type ribosome), % (no concentration beside the values) | E. coli WT GFP vs humanized-ribosome RFP mutants, fluorescence, 24 h; hits give low values; DMSO median 0, no signal -100 | AID 720706 | 350,000 tested, 1.6% active;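 active = significant combined selectivity score with lowered wild-type GFP, culture density cut under 30%, mutant RFP and density less affected; inactive = any of these conditions unmet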; also: one replicate is shown; some compounds called inactive have numbers as strong as hits
rRNA inh HTS OD600: further read-out of rRNA inh HTS, marked with its call; OD600 change, %; measured here: OD600 growth;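 optical density of the mix in the first replicate; 0 = DMSO median and -100 = no signal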
rRNA inh HTS RFP: recorded beside rRNA inh HTS, whose call it bears; RFP signal change, %; measured here: RFP humanized mutant strains;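 first replicate; 0 = DMSO median and -100 = no signal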
Numbers without * were called inactive; & = joins results of further samples.

The line under a structure holds: rRNA inh HTS, rRNA inh HTS OD600, rRNA inh HTS RFP
1	COc1ccc2c3c([nH]c2c1)[C@@H](CO)N(Cc1cccc(F)c1)CC31CCN(C(C)=O)CC1
 : 1, 5, 1.0
2	CCCC#Cc1ccc([C@@H]2[C@H]3CN(C(=O)Nc4cc(F)ccc4F)CC(=O)N3[C@H]2CO)cc1
 : -29, -59, 14
3	COc1ccc2c3c(n(C)c2c1)[C@H](CO)N(Cc1ccccc1OC)CC31CCN(CC2CC2)CC1
 : -3, 1, 0.8
4	CC(=O)Nc1cccc2c1O[C@@H](CN(C)C)[C@H](C)CN(C)C2=O
 : 1, -2, -2.8
5	C/C=C/c1ccc([C@H]2[C@@H](CO)N(S(C)(=O)=O)[C@@H]2CN(CCC)C(C)=O)cc1
 : 1, 9, -1.1
6	COc1ccc(S(=O)(=O)N(C)C[C@H]2OCCCC[C@H](C)Oc3ccc(N(C)C)cc3C(=O)N([C@@H](C)CO)C[C@H]2C)cc1
 : -4, -5, 0.3
7	COc1cccc(C#Cc2ccc([C@@H]3[C@@H](CO)N4C(=O)CN(C(C)=O)C[C@H]34)cc2)c1
 : 4, 1, -3.2
8	O=C(Nc1ccc2c(c1)[C@H]1C[C@H](CC(=O)N3CCCCC3)O[C@H](CO)[C@H]1O2)Nc1ccccc1F
 : -7, -14, 3.8
9	COc1ccc(C[C@@H]2CCn3cc(nn3)COC[C@@H](C)NC2=O)cc1
 : 1, 4, -0.7
10	CC(=O)NC[C@@H]1[C@H](c2ccc(-c3cccnc3)cc2)[C@H](CO)N1C(=O)C1CCC1
 : 1, 8, -4.1
11	C[C@@H]1CN([C@@H](C)CO)C(=O)c2cc(NC(=O)Cc3ccccc3)ccc2O[C@H]1CN(C)S(C)(=O)=O
 : 5, 3, 0.3
12	COCC(=O)N1CC(=O)N2[C@H](CO)[C@H](c3ccc(-c4cccnc4)cc3)[C@H]2C1
 : -1, 2, -2.8
13	COc1ccc(S(=O)(=O)Nc2ccc3c(c2)[C@H]2C[C@@H](CC(=O)O)O[C@@H](CO)[C@H]2O3)cc1
 : 3, -1, -3.1
14	C[C@@H]1CCCCO[C@H](CN(C)S(C)(=O)=O)[C@H](C)CN([C@@H](C)CO)C(=O)c2cc(NC(=O)Nc3ccc(C(F)(F)F)cc3)ccc2O1
 : 0, -7, 0.5
15	C/C=C/c1ccc([C@@H]2[C@@H](CNC(=O)C3CC3)N(C(=O)NCCC)[C@H]2CO)cc1
 : -5, 4, -0.9
16	CCCNC(=O)Nc1ccc2c(c1)C(=O)N(C)C[C@H](OC)[C@@H](C)CN(C(=O)CC)[C@@H](C)CO2
 : 4, 4, -1.0
17	C[C@H]1CN([C@@H](C)CO)C(=O)c2cc(-c3cccc(C#N)c3)cnc2O[C@H]1CN(C)Cc1ccc(F)cc1
 : 3, 7, 0.4
18	O=C(c1cccc(F)c1)N1CC(=O)N2[C@H](C1)[C@H](c1ccc(C#Cc3ccc(F)cc3)cc1)[C@@H]2CO
 : -31, -64, 12
19	O=C(C[C@H]1C=C[C@H](NC(=O)C2CC2)[C@H](CO)O1)NC1CCC1
 : 6, 5, 14
20	C/C=C/c1ccccc1[C@H]1[C@@H](CO)N(C(=O)Nc2ccc(OC)cc2)[C@H]1C#N
 : -6, -20, -4.0
21	Cc1ccccc1S(=O)(=O)N(C)C[C@H]1OCc2ccccc2-c2c(n(C)c3ccccc23)C(=O)N([C@@H](C)CO)C[C@H]1C
 : 3, 13, -2.7
22	C/C=C/c1ccc([C@@H]2[C@H](CO)N(C(=O)CC)[C@H]2CNC(=O)c2ccncc2)cc1
 : -3, -12, 1.0
23	COc1ccc2c3c([nH]c2c1)[C@H](CO)N(Cc1nccs1)CC31CCN(C(=O)C2CCCCC2)CC1
 : -3, 13, 3.3
24	COc1ccc(C#Cc2cccc(-c3nc(C(=O)N4CCN(Cc5ccccc5)CC4)cc4c3[C@H](CCO)N(S(=O)C(C)(C)C)C4)c2)cc1OC (stereo partly drawn)
 : -5, -5, 8.8
25	CCCN(C)C[C@@H]1Oc2cc(C#CC3CCCCC3)ccc2S(=O)(=O)N([C@H](C)CO)C[C@H]1C
 : 1, -1, 3.6
26	C[C@@H]1CN([C@@H](C)CO)C(=O)c2cc(NS(C)(=O)=O)ccc2O[C@@H](C)CCCCO[C@H]1CN(C)Cc1ccccc1
 : 4, 2, -1.0
27	CCCNC(=O)NC[C@@H]1[C@@H](c2ccc(C3=CCCC3)cc2)[C@@H](CO)N1C(C)=O
 : -1, -6, -0.3
28	C[C@H]1CN([C@@H](C)CO)C(=O)c2cccc(NS(=O)(=O)c3ccc(F)cc3)c2O[C@H]1CN(C)Cc1ccc(C(F)(F)F)cc1
 : -2, -2, 1.7
29	CCCN1[C@@H]2c3ccc(C4=CCCC4)c(=O)n3C[C@@H]2[C@@H](CO)[C@@H]1C(=O)NCCCN(C)C
 : 2, 7, 0.8
30	COc1ccc2c3c([nH]c2c1)[C@H](CO)N(Cc1ccccc1F)CC31CCN(S(C)(=O)=O)CC1
 : 1, -7, -2.7
31	Cc1ccc(S(=O)(=O)N(C)C[C@H]2Oc3ccc(NC(=O)NC(C)C)cc3C(=O)N([C@@H](C)CO)C[C@@H]2C)cc1
 : -2, 1, 0.8
32	CO[C@H]1CN(C)C(=O)c2ccc(NS(C)(=O)=O)cc2OC[C@H](C)N(C(=O)c2ccc3c(c2)OCO3)C[C@@H]1C
 : 0, -3, -0.6
33	C[C@@H]1CCCCO[C@@H](CN(C)S(=O)(=O)c2cccs2)[C@@H](C)CN([C@@H](C)CO)C(=O)c2cc(NS(=O)(=O)c3ccc(Cl)cc3)ccc2O1
 : 1, 9, -0.8
34	COCC(=O)Nc1ccc2c(c1)OC[C@@H](C)N(CCC(F)(F)F)C[C@H](C)[C@@H](OC)CN(C)C2=O
 : 1, -1, 0.5
35	O=C(c1cnccn1)N1CC(=O)N2[C@H](C1)[C@H](c1ccc(C#CC3CCCCC3)cc1)[C@@H]2CO
 : -2, -10, 6.7
36	Cc1noc(C)c1NC(=O)N(C)C[C@@H]1OCCCC[C@@H](C)Oc2ccc(NS(=O)(=O)c3ccc(Cl)cc3)cc2C(=O)N([C@H](C)CO)C[C@@H]1C
 : 6, 5, -1.8
37	C[C@@H]1CN([C@@H](C)CO)S(=O)(=O)c2ccc(C#CC3CC3)cc2O[C@@H]1CN(C)Cc1ccccc1F
 : -6, -14, -3.3
38	O=C(Cc1ccccc1)N1CC(=O)N2[C@H](C1)[C@@H](c1ccc(C#CCc3ccccc3)cc1)[C@@H]2CO
 : 0, 1, 8.6
39	CNC[C@H]1Oc2ccc(N)cc2C(=O)N(C)C[C@H]1C
 : 2, -3, 0.4
40	CCC(=O)N1[C@H](C(=O)NCCCN(C)C)[C@@H](CO)[C@@H]2Cn3c(ccc(-c4ccccc4F)c3=O)[C@@H]21
 : 5, 11, -1.1
41	CCN(C[C@H]1[C@@H](c2ccc(-c3ccccc3)cc2)[C@@H](CO)N1C(C)=O)C(C)=O
 : -3, -2, 0.8
42	Cc1noc(C)c1S(=O)(=O)N(C)C[C@@H]1Oc2ccc(NC(=O)Nc3ccccc3)cc2CC(=O)N([C@H](C)CO)C[C@@H]1C
 : 3, -3, -3.2
43	O=C(C1CCCC1)N1C[C@@H]2N[C@H](C1)C2c1ccc(-c2ccncc2)cc1 (stereo partly drawn)
 : 5&1, 16&1, -0.6&-3.0
44	C[C@H]1CN([C@@H](C)CO)S(=O)(=O)c2ccc(C#CC(C)(C)O)cc2O[C@H]1CN(C)C(=O)C1CC1
 : 1, 12, -1.8
45	O=C(O)C[C@@H]1C[C@@H]2c3cc(NC(=O)c4cccnc4)ccc3O[C@@H]2[C@H](CO)O1
 : 4, 5, -1.7
46	COCCN(C[C@H]1N[C@H](CO)[C@@H]1c1ccccc1)C(=O)NC1CCCC1
 : -4, -6, -3.2
47	N#Cc1cccc(-c2ccc(C3[C@@H]4CN(Cc5cocn5)C[C@H]3N4)cc2)c1 (stereo partly drawn)
 : 3, 13, -0.5
48	O=C(c1ccccc1)N1CC2(C1)[C@@H](c1ccccc1)[C@@H](CO)N2Cc1cccnc1
 : 0, -6, -1.3
49	CCCNC(=O)[C@H]1[C@H](CO)[C@H]2Cn3c(ccc(/C=C/c4ccccc4)c3=O)[C@H]2N1CCC
 : -3, -11, 7.4
50	O=C(c1ccncc1)N1CC(=O)N2[C@H](CO)[C@H](c3ccc(-c4cccnc4)cc3)[C@H]2C1
 : 5, 10, -0.4
51	N#C[C@@H]1[C@H](c2ccccc2/C=C/c2ccccc2)[C@H](CO)N1S(=O)(=O)c1cccc(F)c1
 : -6, -10, -0.5
52	CCC(=O)N1[C@@H](CO)[C@H](c2ccc(C3=CCCC3)cc2)[C@@H]1CNC(=O)CN(C)C
 : 2, 5, -3.1
53	COc1ccc(S(=O)(=O)N(C)C[C@@H]2Oc3ncc(-c4ccccc4)cc3C(=O)N([C@H](C)CO)C[C@@H]2C)cc1
 : 5, 11, 0.4
54	O=C(C[C@H]1C[C@@H]2c3cc(NC(=O)C4CCOCC4)ccc3O[C@@H]2[C@H](CO)O1)NCC1CC1
 : 2, 5, -0.7
55	O=C(c1cccc(F)c1)N1CC(=O)N2[C@H](C1)[C@@H](c1ccc(C#Cc3ccc(F)cc3)cc1)[C@@H]2CO
 : 2, -8, 4.3
56	CO[C@H]1CN(C)C(=O)c2ccc(NS(C)(=O)=O)cc2OC[C@@H](C)N(Cc2ccccc2)C[C@@H]1C
 : -5, -11, 3.0
57	O=S(=O)(c1ccccc1F)N1[C@@H]2CNC[C@H]1C2c1ccc(-c2ccncc2)cc1 (stereo partly drawn)
 : -3&-2, 2&4, -0.2&-0.3
58	C[C@@H]1CN([C@@H](C)CO)C(=O)c2cc(-c3ccc(F)cc3)cnc2O[C@@H]1CN(C)Cc1ccc(F)cc1
 : 4, -13, 2.0
59	O=C(c1cccc(F)c1)N1CC(=O)N2[C@H](C1)[C@H](c1ccc(-c3ccccc3)cc1)[C@@H]2CO
 : 0, -9, 14
60	C[C@@H]1CN(C)C(=O)c2cc(NS(C)(=O)=O)ccc2O[C@@H]1CN(C)S(C)(=O)=O
 : 2, 5, -0.9

10 structures from above, sorted by number of heavy atoms, high to low:
The line under a structure holds: rRNA inh HTS, rRNA inh HTS OD600, rRNA inh HTS RFP
53	COc1ccc(S(=O)(=O)N(C)C[C@@H]2Oc3ncc(-c4ccccc4)cc3C(=O)N([C@H](C)CO)C[C@@H]2C)cc1
 : 5, 11, 0.4
58	C[C@@H]1CN([C@@H](C)CO)C(=O)c2cc(-c3ccc(F)cc3)cnc2O[C@@H]1CN(C)Cc1ccc(F)cc1
 : 4, -13, 2.0
55	O=C(c1cccc(F)c1)N1CC(=O)N2[C@H](C1)[C@@H](c1ccc(C#Cc3ccc(F)cc3)cc1)[C@@H]2CO
 : 2, -8, 4.3
56	CO[C@H]1CN(C)C(=O)c2ccc(NS(C)(=O)=O)cc2OC[C@@H](C)N(Cc2ccccc2)C[C@@H]1C
 : -5, -11, 3.0
59	O=C(c1cccc(F)c1)N1CC(=O)N2[C@H](C1)[C@H](c1ccc(-c3ccccc3)cc1)[C@@H]2CO
 : 0, -9, 14
50	O=C(c1ccncc1)N1CC(=O)N2[C@H](CO)[C@H](c3ccc(-c4cccnc4)cc3)[C@H]2C1
 : 5, 10, -0.4
48	O=C(c1ccccc1)N1CC2(C1)[C@@H](c1ccccc1)[C@@H](CO)N2Cc1cccnc1
 : 0, -6, -1.3
52	CCC(=O)N1[C@@H](CO)[C@H](c2ccc(C3=CCCC3)cc2)[C@@H]1CNC(=O)CN(C)C
 : 2, 5, -3.1
60	C[C@@H]1CN(C)C(=O)c2cc(NS(C)(=O)=O)ccc2O[C@@H]1CN(C)S(C)(=O)=O
 : 2, 5, -0.9
46	COCCN(C[C@H]1N[C@H](CO)[C@@H]1c1ccccc1)C(=O)NC1CCCC1
 : -4, -6, -3.2

(cont.)
The line under a structure holds: rRNA inh HTS, rRNA inh HTS OD600, rRNA inh HTS RFP
61	C/C=C/c1ccc2c(c1)O[C@H](CN(C)C(=O)Cc1cccnc1)[C@@H](C)CN([C@H](C)CO)S2(=O)=O
 : 1, 3, -2.0
62	C[C@@H]1CN([C@H](C)CO)C(=O)c2cc(NC(=O)CCCN(C)C)ccc2O[C@@H]1CN(C)C(=O)NC1CCCCC1
 : 5, 3, 0.1
63	C[C@H](O)C#Cc1ccc2c(c1)O[C@H](CN(C)CC1CC1)[C@H](C)CN([C@@H](C)CO)S2(=O)=O
 : 1, 1, -1.7
64	C[C@H](O)C#Cc1ccc2c(c1)O[C@H](CN(C)CC1CC1)[C@H](C)CN([C@H](C)CO)S2(=O)=O
 : -4, 0, 4.4
65	CCC(=O)N1[C@H](CO)[C@H](c2ccccc2)[C@H]1CN(CC1CCC1)S(C)(=O)=O
 : 0, 3, 1.3
66	Cc1ccc(S(=O)(=O)Nc2ccc3c(c2)C(=O)N([C@@H](C)CO)C[C@H](C)[C@@H](CN(C)Cc2ccc(Cl)c(Cl)c2)OCCCC[C@@H](C)O3)cc1
 : 5, 0, 15
67	C[C@@H]1CN([C@@H](C)CO)C(=O)c2cc(NC(=O)Cc3ccccc3)ccc2O[C@H]1CN(C)C(=O)Nc1ccc(C(F)(F)F)cc1
 : -1, -3, -0.5
68	COc1ccc(NC(=O)Nc2ccc3c(c2)C(=O)N([C@H](C)CO)C[C@@H](C)[C@@H](CN(C)S(=O)(=O)c2ccc(Cl)cc2)OCCCC[C@@H](C)O3)cc1
 : 4, 3, 2.8

Screening data as filed in PubChem.

A portion of the library; the hit share may differ from the screen's.
